Source: PubChem (NMMLSC)
Autofluor counter: flagged as autofluorescent in microsphere protease counterscreen | compound autofluorescence counterscreen, microsphere flow cytometry; active compounds read high | fluorescence intensity (test concentration not listed) | actives 3.1% (n = 360,000) | AID 624483;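 active = at least 3 SD above the mean of all compounds, about 16000 in these data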;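 also: 100 nL of 1 mM stock went into each well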
* = called active by the depositor. Some of the compounds tested; the hit share may differ from the screen's.

SMILES	Autofluor counter
Nc1ccn([C@@H]2O[C@H](CNS(=O)(=O)c3cc4ccccc4s3)[C@@H](O)[C@H]2O)c(=O)n1	3750
COc1ccc(C(C)=O)cc1Cn1c(C)c(C(=O)NCc2cccc(C)c2)sc1=O	5579
O=c1cc(CN2CCN(c3ccccc3)CC2)c2ccccc2o1	5600
CN(C)CCNC(=O)c1cccc2c(-c3ccc(F)c(F)c3)coc12	3740
O=C(CSc1nnc2ccccn12)Nc1ccccc1[N+](=O)[O-]	3713
COc1ccc(F)cc1-c1cc(C(=O)Nc2ccc(C)c(NS(C)(=O)=O)c2)[nH]n1	3301
O=C(NC(c1cccnc1)c1ccc2c(c1)OCO2)C1CCN(CCOc2ccc(Cl)cc2Cl)CC1 (stereo unspecified)	3157
CCCN(CCC)CCNC(=O)Cn1cc2c(n1)-c1c(oc(C(=O)N3CCCC3)c1C)CC2	3766
O=C(Nc1ccccc1)Nc1ncc(C(F)(F)F)cc1Cl	3600
COCCNc1nc(-c2cc(F)ccc2C)c2sc(-c3ccccc3)cc2n1	3659
C[C@@H]1CN([C@H](C)CO)C(=O)CCCn2cc(nn2)CO[C@H]1CN(C)C(=O)OCc1ccccc1	3076
O=C(NCc1ccc(C(F)(F)F)cc1)c1ccc(-c2ccc(F)c(F)c2)c2ccoc12	3914
Cc1c(C(=O)NCc2ccc3c(c2)OCO3)sc(=O)n1Cc1ccc(S(C)(=O)=O)cc1	4181
O=C1NC(Cc2ccccc2)c2nc3cc(F)c(F)cc3c(=O)n2-c2ncccc21 (stereo unspecified)	3431
O=C(Nc1nnc([C@H]2C[C@H](O)[C@@H](CO)O2)s1)c1ccc(Oc2ccccc2)cc1	3574
CCOC(=O)[C@]12CCC=C1N(Cc1ccc3c(c1)OCO3)C(=O)[C@H](CC(=O)NCCCCc1ccccc1)C2	4726
CC1(C(=O)Nc2ccc3c(c2)OCO3)CCN1C(=O)Cc1ccc(-c2ccccc2)cc1 (stereo unspecified)	3667
Cc1cnc(CNC(=O)c2csc(COCCO)n2)cn1	3964
CC1(C)CC(=O)C=C(c2n[nH]nc2-c2ccccc2)C1	2982
C[C@@H]1Cn2cnc(C(=O)N[C@@H](C)C(=O)OC(C)(C)C)c2C(=O)N1	3442
CCOC(=O)C1(C)CCN1C(=O)c1cccs1 (stereo unspecified)	4052
Cc1noc(C)c1CSCC(=O)OCC(=O)Nc1ccc(OC(F)(F)F)cc1	3392
CC(O)(c1ccccc1)c1nc(-c2ccc(F)c(Cl)c2)cs1 (stereo unspecified)	2895
CC1(C(=O)O)CCC2(C)CCC3(C)C(=CC(=O)C4C5(C)CCC(=O)C(C)(C)C5CCC43C)C2C1 (stereo unspecified)	3672
CC(=NOC(=O)c1ccc(I)cc1)c1nccs1	2979
CC(C)c1ccccc1NC(=O)Nc1nnc([C@H]2C[C@H](O)[C@@H](CO)O2)s1	3855
FC(F)(F)c1cc(Cl)c2nc(-c3ccc(Cl)cc3)c(Cc3ccccc3)n2c1	6638
OC1c2cc(Br)ccc2N=C2CCCCCN21 (stereo unspecified)	3623
C[C@@H]1CN([C@@H](C)CO)C(=O)c2cc(-c3ccccc3F)cnc2O[C@H]1CN(C)Cc1cccc(F)c1	3557
OCCCNc1ncnc2c1ncn2[C@H]1CN(C2CCCC2)C[C@@H](CO)O1	3748
CC1(C(=O)NS(=O)(=O)c2cccs2)CCN1C(=O)CCc1ccc(Cl)cc1Cl (stereo unspecified)	2828
COc1ccccc1N1CCN(C2CCCN(C(=O)c3cc(C(C)C)on3)C2)CC1 (stereo unspecified)	4146
CC1(C(=O)NS(=O)(=O)c2cccc(OC(F)F)c2)CCN1C(=O)Cc1ccccc1 (stereo unspecified)	3733
CSCCC(C(=O)Nc1c(C)cccc1C)N(C)CCc1ccccc1 (stereo unspecified)	5520
OC[C@@H]1CN(Cc2ccco2)C[C@H](n2cnc3c(NC4CCCC4)ncnc32)O1	3090
O=C(NCCCN1CCOCC1)c1ccccc1N1C(=O)[C@@H]2Cc3c([nH]c4ccccc34)C(c3ccccc3)N2C1=O (stereo partly specified)	4103
CC(C)(C)c1ccc(C(O)c2ncc(-c3ccccc3F)[nH]2)cc1 (stereo unspecified)	3909
NC(Cc1ccc(F)cc1)c1csc(Nc2ccc(S(N)(=O)=O)cc2)n1 (stereo unspecified)	3561
COc1cccc(-c2cnc3c(NC(C)=O)cc(-c4ccc(OC)c(OC)c4)cn23)c1	4140
CC(=O)Nc1cccc(-c2cc(NC(C)=O)c3ncc(-c4ccc(C(C)=O)cc4)n3c2)c1	2828
COc1ccc(S(=O)(=O)Nc2ccc3c(c2)C(=O)N([C@H](C)CO)C[C@H](C)[C@@H](CN(C)C(=O)Nc2ccc(C(F)(F)F)cc2)OCCCC[C@H](C)O3)cc1	3842
CCOC(=O)C(=C1Nc2ccccc2N1)n1c(-c2cnccn2)nc2ccccc21	6277
O=c1[nH]c2ccccc2n1C1CCN(C(c2cccc3ccccc23)c2nnnn2Cc2ccccc2)CC1 (stereo unspecified)	6001
CCOC(=O)[C@]12CCCC=C1N(Cc1ccc3c(c1)OCO3)C(=O)[C@H](CC(=O)NCCC(C)C)C2	4321
Cc1cccnc1C1=NOC(Cc2ccccc2)C(=O)N1Cc1ccccc1F (stereo unspecified)	5288
CCN(CC(=O)Nc1cccc(F)c1)CC(=O)Nc1ccc2c(c1)OCCO2	3056
CCCC(=O)N1CCC1(C)C(=O)NS(=O)(=O)c1ccc(C#N)cc1 (stereo unspecified)	2933
CN(c1cc(Cl)c2c(c1)OCO2)c1cc2c(c3c1ccn3C)C1CCC2C1 (stereo unspecified)	4553
COc1cc(S(=O)(=O)N2CCN(Cc3ccc4c(c3)OCO4)CC2)ccc1NC(C)=O	3665
CC[C@H](C)[C@@H](COC=O)NC(=O)[C@H]1O[C@@H](n2ccc(N)nc2=O)[C@H](O)[C@@H]1O	5316
NCc1csc(Nc2cc(Oc3ccccc3)ncn2)n1	4177
Cc1cc2oc(=O)cc(CN3CCN(c4ccc(Cl)c(Cl)c4)CC3)c2cc1Cl	4184
O=C(CSc1nnc(-c2c[nH]c3ccccc23)n1C1CC1)NC1CCS(=O)(=O)C1 (stereo unspecified)	3512
CCc1nc2c(OCc3ccc(C(=O)OC)cc3)cccn2c1N(C)C(=O)c1ccc(C)cc1	3720
COc1ccc(NC(=O)c2cc(C3CCCCN3C(=O)c3ccc(C#N)cc3)on2)c(C)c1 (stereo unspecified)	3814
CCOC1=C2[C@@H](CN(S(=O)(=O)c3ccc(C)cc3)[C@H]2c2ccccc2)[C@H]2C(=O)N(c3ccccc3)C(=O)[C@H]2C1	4619
CCN(C)C1CN(Cc2cn(Cc3cc(C)cc(C)c3)nn2)S(=O)(=O)C1 (stereo unspecified)	4159
CCOC(=O)[C@]12CCCC=C1N(Cc1ccc3c(c1)OCO3)C(=O)[C@H](CC(=O)NCCCOC)C2	4200
COC(=O)c1ccc(-c2nc(CN3CCN(C(=O)c4ccco4)CC3)c(C)o2)cc1	3025
N#CC(CC(=O)OCc1ccccc1)NC(=O)OCc1ccccc1 (stereo unspecified)	3689
Remaining list, next part
SMILES	Autofluor counter
CCOC(=O)C1=C[C@@H](C(C)(C)C)N(S(=O)(=O)c2ccc(OC)cc2)[C@H]1c1ccccc1	5527
O=C(CCNC(=O)c1ccccc1Cl)Nc1ccc2c(c1)OCCO2	4011
CC1CCCCC1NC(=O)CSc1nnc(C(F)(F)F)n1C (stereo unspecified)	3748
O=c1[nH]c2cc3ccccc3cc2nc1-c1nnnn1C1CCCC1	5438
CC(=Cc1ccccc1)C=C1SC(=S)N(CCCC(=O)Nc2ccc(C(=O)O)c(O)c2)C1=O	3409
NC(CCc1ccccc1)c1csc(NC(=O)Nc2cccc(Cl)c2)n1 (stereo unspecified)	3709
O=C(Nc1cc(Cl)cc(Cl)c1)N1Cc2ccccc2-n2nncc2C1	2874
C[C@H]1CN([C@@H](C)CO)S(=O)(=O)c2ccc(C#CC3(O)CCCC3)cc2O[C@@H]1CN(C)C(=O)Cc1cccnc1	3609
C=CCN1[C@H](COCc2ccccc2)C=CS1(=O)=O	4184
CCCNC(=O)C1(C)CCN(C(=O)c2cc(F)ccc2C)C1 (stereo unspecified)	3603
Cc1ccc(C(NC(=O)C2CCN(Cc3ccc(Cl)c(Cl)c3)CC2)c2ccccn2)cc1 (stereo unspecified)	6329
O[C@@H]1C[C@H](c2ccc(Cl)cc2)N(CC2CCCCC2)C[C@H]1n1cc(C2CC2)nn1	3595
O=C(c1[nH]c(C(F)(F)F)nc1-c1ccccc1)N1CCN(c2ccncc2)CC1	5406
COc1ccc(NC(=O)C2(C)CCN2C(=O)Cc2ccc(Cl)cc2Cl)cc1OC (stereo unspecified)	3831
Cc1cc(C)c2c(CN(C)Cc3ccccc3)cc(=O)oc2c1	5894
CC(=O)c1cccc(Nc2ccc(C#N)cc2)c1	5860
N#Cc1ccc(CN2Cc3ccccc3-n3nncc3C2)cc1	2792
CCOC(=O)[C@]12CCCC=C1N(Cc1cccc3ccccc13)C(=O)[C@H](CC(=O)NCc1ccc(OC)c(OC)c1)C2	5786
CCCCCCn1c(=O)n2n(c1=O)[C@@H]1CN(S(=O)(=O)c3ccc(C)cc3)C[C@]1(O)[C@@H](OC(=O)NCc1ccc(OC)c(OC)c1)C2	4117
CCC(=O)N(C)C[C@@H]1Oc2cc(Br)ccc2S(=O)(=O)N([C@@H](C)CO)C[C@@H]1C	3678
O=C(NCCc1ccccc1)c1ccc(-c2cccnc2)c2ccoc12	3447
COC(=O)C1=C(c2ccc(OCc3ccccc3)cc2)C[C@@H]2CC[C@H]1N2C(=O)NCc1cccc(F)c1	3358
Cc1ccc(C)c(C(O)c2ncc(-c3cccc(F)c3)[nH]2)c1 (stereo unspecified)	3984
Oc1ccc(C=NNC(=S)Nc2ccccc2)nc1	3657
COC(=O)c1cccc(CN2C(=O)C(C)Sc3ccc(C(C)=O)cc32)c1 (stereo unspecified)	3641
Nn1c(SCC(=O)N2CCCC2)nnc1C1CCCCC1	2879
C[C@@H]1CN([C@H](C)CO)C(=O)c2cc(Br)cnc2O[C@@H]1CN(C)C(=O)C1CCOCC1	4359
CC1(C(=O)NCCc2ccccc2)Cc2c(-c3ccc(C(N)=O)cc3)ccnc2O1 (stereo unspecified)	3508
CCCCN(C=O)c1c(CC)nc2c(OCc3cccc(Cl)c3)cccn12	2890
COc1ccc(S(=O)(=O)N2CCOCC2)cc1NC(=O)Cc1ccc(F)cc1	4286
CC1(C(=O)NCc2ccco2)CCN1C(=O)C1(c2ccccc2)CC1 (stereo unspecified)	3980
CSc1ccc(NC(=O)C2(C)CCN2C(=O)C2(c3ccccc3)CC2)cc1 (stereo unspecified)	3727
O=C(NCCCN1CCOCC1)/C(=C/c1ccc(-c2cccc([N+](=O)[O-])c2)o1)NC(=O)c1ccccc1	3431
OC(c1ccc(-c2ccccc2)cc1)c1ncc(-c2ccc(C(F)(F)F)cc2)[nH]1 (stereo unspecified)	3784
CC1=CP(=O)(Oc2ccc([N+](=O)[O-])cc2)CC1 (stereo unspecified)	2756
CCCCCCN1C[C@@H](O)[C@H](n2cc(C3CC3)nn2)C[C@@H]1c1ccc(C)cc1	4366
COc1cc(OC)cc(C(=O)Nc2cccc(NC(=O)c3cccs3)c2)c1	3709
CC(=O)Nc1cccc(-c2ccnc3c2CC(C(=O)NC(C)C)O3)c1 (stereo unspecified)	4120
C[C@@H]1CCCCO[C@H](CN(C)C(=O)Nc2ccc(F)cc2)[C@@H](C)CN([C@H](C)CO)C(=O)c2cc(NC(=O)c3ccccc3)ccc2O1	3528
CCCCn1nnnc1C(c1ccccc1)N1CCN(C(C)=O)CC1 (stereo unspecified)	5382
O=C(Nc1cc(C(F)(F)F)ccc1N1CCCC1)C1CC(=O)N(Cc2ccccc2)C1 (stereo unspecified)	3927
O=C(Nc1cccc2ccccc12)c1[nH]c(-c2ccccc2)c2c1C(=O)N(C1CC1)C2=O	5309
COc1ccc(CSc2ccc(S(=O)(=O)N3CCCC3)cn2)cc1F	3543
OC(c1cccc(Cl)c1)c1nc(-c2ccoc2)cs1 (stereo unspecified)	4022
CC1(C(=O)NS(=O)(=O)Cc2cccc(Cl)c2)CCN1C(=O)Cc1ccccc1 (stereo unspecified)	3485
CC(C)(C)c1ccc(C(=O)N2CCC2(C)C(=O)NS(=O)(=O)c2ccc(C#N)cc2)cc1 (stereo unspecified)	4012
Nc1nc2cc3c(cc2cc1C(=O)NCc1ccc(F)cc1)OCO3	6320
Cc1ccc(Cl)cc1NC(=O)CCS(=O)(=O)c1ccc2c(c1)n(C)c(=O)c(=O)n2C	3574
